Compound activity deposited in PubChem BioAssay by Johns Hopkins Ion Channel Center.
Kir21 block: blocks the mouse Kir2.1 inward-rectifier potassium channel. HEK293-Kir2.1, FluxOR thallium flux fluorescence; hits give low values. B-score at 10 µM. 310,000 compounds, 0.85% hits;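 active means fluorescence ratio B-score at or below minus 3 SD of library scores, with starting-brightness B-score within 2 SD, cut at about -4.2 in these data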;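 further: channel flux triggered by added potassium and thallium sulfate stimulus; B-score of peak minus minimum fluorescence over baseline after thallium stimulus; more negative B-score means stronger Kir2.1 block with less thallium influx; some compounds called inactive have numbers as strong as hits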
Target sequence (P35561 whole entry, looked up): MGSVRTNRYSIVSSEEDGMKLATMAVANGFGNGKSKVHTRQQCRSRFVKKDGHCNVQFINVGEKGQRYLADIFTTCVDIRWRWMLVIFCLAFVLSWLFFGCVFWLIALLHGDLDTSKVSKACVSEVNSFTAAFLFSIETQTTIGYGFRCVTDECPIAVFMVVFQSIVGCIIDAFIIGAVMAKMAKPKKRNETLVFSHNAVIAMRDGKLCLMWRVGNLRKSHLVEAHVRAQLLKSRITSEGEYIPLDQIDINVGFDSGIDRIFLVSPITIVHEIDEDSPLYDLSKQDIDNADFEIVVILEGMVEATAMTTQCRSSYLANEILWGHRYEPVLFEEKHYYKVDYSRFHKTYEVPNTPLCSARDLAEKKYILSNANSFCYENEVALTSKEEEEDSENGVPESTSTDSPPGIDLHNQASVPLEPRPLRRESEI
The depositor's hits bear a star. Not all compounds are listed; most or all hits stand in other tables.

mol	Kir21 block
CCN1CCN(C(c2ccccc2)c2nnnn2CCc2ccc(OC)c(OC)c2)CC1 (stereo unspecified)	-0.45
O=C(c1ccccc1S(=O)(=O)NCc1ccccc1)N1CCCCC1	-1.82
COc1ccccc1C(=O)NCCC(=O)NCCC12CC3CC(CC(C3)C1)C2	-3.48
Cc1nc(CSc2ccc(Br)cc2)cs1	-0.62
CCCN(CCC)CC(O)Cn1c2ccccc2c2ccccc21 (stereo unspecified)	-1.74
O=C(O)C1CCCCC1C(=O)Nc1ccc2c(c1)OCO2 (stereo unspecified)	0.49
C=CCN(CC=C)S(=O)(=O)c1ccc(C(=O)Nc2nc3c(s2)CCc2ccccc2-3)cc1	0.24
O=C(CSc1nnnn1-c1cccc(Cl)c1)Nc1ccc2c(c1)CCC2	0.49
CCOc1ccccc1N1CCN(C(=O)c2csc(C)c2CC)CC1	0.77
CC(C)CCNC(=O)c1cccc(C(=O)NCCC(C)C)c1	0.49
Cn1ncc(C(N)=O)c1NC(=S)NC(=O)c1ccc(Br)o1	-0.01
CC1CCCN(CCCNC(=O)C2CC(=O)N(c3ccc(F)c(Cl)c3)C2)C1 (stereo unspecified)	-1.92
COc1ccc(S(=O)(=O)N2CCOCC2)cc1NC(=O)Cc1c(Cl)cccc1Cl	0.28
CC(=O)Nc1ccc(S(=O)(=O)NC(CC(=O)NCCC2=CCCCC2)C(C)C)cc1 (stereo unspecified)	-0.62
COC(=O)c1ccc2c(=O)n(-c3ccccc3)c(=S)[nH]c2c1	0
COc1ccc(-c2nnc(SCC(N)=O)n2N)cc1	0.63
O=C(c1ccc(F)cc1)N1CCN(S(=O)(=O)c2ccc(Br)cc2)CC1	0.68
CC1C(=O)Nc2ccc(S(=O)(=O)Nc3ccccc3Br)cc2NC1=O (stereo unspecified)	-0.01
CC(C)(C)c1ccc(S(=O)(=O)N2C=CC(C(F)(F)F)=NCC2)cc1	-0.28
O=C(Nc1ccc(F)cc1F)N1CCCN(CCOc2ccccc2)CC1	-0.17
COCCNC(=S)Nc1ccc([N+](=O)[O-])cc1C	0.33
COCCn1c(CN(C)Cc2ccccc2)nc2c1c(=O)n(C)c(=O)n2C	0.86
COc1ccc(C2CC(c3cccs3)=NN2C(=O)CN2CCCCC2)cc1 (stereo unspecified)	0.79
CCCS(=O)(=O)N1CCC(C(=O)NCCC(C)C)CC1	-0.69
O=C(NS(=O)(=O)c1ccccc1Cl)c1ccc[nH]1	0.03
CCc1cc(=O)oc2cc(OCC(=O)NCc3ccccn3)ccc12	-0.04
O=C(NNc1ccccn1)C(=O)NNS(=O)(=O)c1ccc(F)cc1	0.31
CN(C)C(=O)c1cc2cc([N+](=O)[O-])ccc2s1	-0.89
COc1ccc(NC(=O)CCS(=O)(=O)c2ccc3c(c2)NC(=O)C(C)S3)cc1OC (stereo unspecified)	1.06
COc1ccccc1NC(=O)CSc1nnc(COc2ccccc2OC)n1C	-1.09

Sorted by heavy-atom count (smallest number first): 3 of the compounds above
mol	Kir21 block
Cc1nc(CSc2ccc(Br)cc2)cs1	-0.62
CCCS(=O)(=O)N1CCC(C(=O)NCCC(C)C)CC1	-0.69
COc1ccc(S(=O)(=O)N2CCOCC2)cc1NC(=O)Cc1c(Cl)cccc1Cl	0.28

Among those listed so far, these have four or more nitrogen atoms:
mol	Kir21 block
CCN1CCN(C(c2ccccc2)c2nnnn2CCc2ccc(OC)c(OC)c2)CC1 (stereo unspecified)	-0.45
O=C(CSc1nnnn1-c1cccc(Cl)c1)Nc1ccc2c(c1)CCC2	0.49
Cn1ncc(C(N)=O)c1NC(=S)NC(=O)c1ccc(Br)o1	-0.01
COc1ccc(-c2nnc(SCC(N)=O)n2N)cc1	0.63
COCCn1c(CN(C)Cc2ccccc2)nc2c1c(=O)n(C)c(=O)n2C	0.86
O=C(NNc1ccccn1)C(=O)NNS(=O)(=O)c1ccc(F)cc1	0.31
COc1ccccc1NC(=O)CSc1nnc(COc2ccccc2OC)n1C	-1.09

Additional compounds.
mol	Kir21 block
CCSc1oc(-c2ccco2)nc1S(=O)(=O)c1ccccc1	-2.05
O=C(Nc1ccccc1)c1n[nH]c(Cn2cncn2)n1	-1.5
C=CCn1c(CCCNC(=O)CCC)nc2ccccc21	0.26
O=c1c2oc3ccccc3c2ncn1Cc1ccccc1Cl	0.25
Cn1nccc1C(=O)N1CCCC(N2CCN(Cc3ccc4c(c3)OCO4)CC2)C1 (stereo unspecified)	-0.08
C/C(=N\OCc1cccc(C(=O)O)c1)c1ccc(Cl)cc1	0.59
Cc1ccc(-n2nnc3c(=O)n(Cc4cc(C)ccc4C)cnc32)cc1	-0.09
Cc1cc(C)nc(NC(=O)c2cccc(Br)c2)n1	1.64
COc1ccc(CC(=O)Nc2cccc3c2CCCC3)cc1	0.52
Cc1ccc(C)c(NC(=O)CN2C(=O)CC(C)S(=O)(=O)c3ccccc32)c1 (stereo unspecified)	0.57
COC(=O)c1cc(OC)c(OC)cc1NC(=O)CSc1ccc(C)cc1	-0.75
COC(=O)c1cc(Cl)c(NC(=O)c2ccc(F)cc2)cc1OC	1.26
S=C(NCCc1ccccc1)NCC1CCCO1 (stereo unspecified)	-1.57
O=C1Nc2ccccc2C12OCCCO2	-0.27
CCOC(=O)C(Cc1ccccc1)NC(=O)CCc1nnc2ccc(N3CCOCC3)nn12 (stereo unspecified)	0.01
COc1ccc(CC(=O)Nc2ccc(NC(=O)c3ccccc3F)cc2)cc1	-0.23
O=C(O)c1ccc(C2(c3ccc(C(=O)O)cc3)OC(=O)c3ccccc32)cc1	0.74
Cc1nn(C)c(Cl)c1NC(=O)OCc1ccccc1	1.57
CCN(C(=O)CSc1nnc(-c2cccs2)n1CC)C1CCS(=O)(=O)C1 (stereo unspecified)	-0.01
COc1cc(C)nc(N2CCC(C(=O)NC3CCCCC3)CC2)n1	-0.53
Cc1ccc(C(=O)C2=C(O)C(=O)N(CCCn3ccnc3)C2c2ccc(OC(C)C)cc2)o1 (stereo unspecified)	-0.05
C=CCN(c1ccccc1)S(=O)(=O)c1ccc2c(c1)oc(=O)n2C	0.45
O=C(CCc1nc(-c2ccccc2)no1)NCCc1ccccc1	-0.44
COc1ccc(-c2cc(=O)c3ccccc3[nH]2)cc1	0.63
O=C(O)/C=C/C(=O)NC1CC1	0.06
CC1(C(=O)NCCCNc2ncc(C(F)(F)F)cc2Cl)C=CC2(CCCCC2)N1C(=O)c1ccccc1 (stereo unspecified)	1.27
COC(=O)c1ccc(OCC(O)CN(CCO)CCO)cc1 (stereo unspecified)	1.12
O=C(CCNC(=O)N1CCn2c1nc1ccccc12)NCc1ccc(Cl)cc1	-0.93
Cc1cccc(/C=C/c2nc3ccccc3c(=O)n2Cc2ccccc2)c1	1.66
CCOC(=O)N1CCN(C(=O)Cc2cccc3ccccc23)CC1	2.8
CC1CCN(c2ccc(NC(=O)c3ccc([N+](=O)[O-])o3)cc2)CC1	1.32
COc1ccccc1-c1nc2n(n1)C(c1cccs1)C(C(=O)Nc1cccnc1)=C(C)N2 (stereo unspecified)	0.38
O=C(CN1CCCCC1)N1CCN(c2ccccc2)CC1	1.42
CCNC(=O)C1CCN(S(=O)(=O)c2ccc(F)cc2)CC1	-3.28
COc1ccc(Nc2ncnc3scc(-c4ccc(OC)cc4)c23)cc1	0.06
CCCCN(C(=O)c1cc(CC)c(C)s1)c1c(N)n(CCC)c(=O)[nH]c1=O	0.09
Cc1ccc(C(=O)Nc2ccc3nc(C)sc3c2)s1	0.5
O=C(Cn1cnc2c(nnn2-c2ccccc2)c1=O)NCc1ccco1	-1.44
COc1ccc(OC)c(S(=O)(=O)Nc2ccc(C(N)=O)cc2)c1	-0.77
C=C(C)C(=O)N1CC2(CC(c3cccc(NC(=O)/C(C)=C\C)c3)=NO2)C[C@H]1C(N)=O (stereo partly specified)	0.98
CCc1ccc(OC(C)c2nnc(SCC(=O)Nc3ncccc3C)n2C)cc1 (stereo unspecified)	0.33
COCCN1C=C(C(=O)OC)C(c2ccc(Cl)cc2)C(C(=O)OC)=C1	0.25
Cc1c(-c2ccccc2)n[nH]c1C(=O)NN	0.55
COc1ccccc1CCc1nnc(CCC(=O)NCC[C@@H]2C[C@@H]3C=C[C@H]2C3)o1	-1.54
C=CCc1cccc2cc(C(=O)NC3CCCC3)c(=O)oc12	0.16
O=C(NN=C(Cc1ccccc1)Cc1ccccc1)c1ccncc1	0.38
CCNc1nc2c(c(=O)[nH]c(=O)n2C)n1Cc1ccc(F)cc1	0.21
COc1cccc(C(=O)Nc2ccc(NC(=O)c3ccco3)cn2)c1	2.54
FC(F)(F)c1nnc2c3ccccc3c(Cl)nn12	0.22

Ordered by value in Kir21 block (ascending): some entries from above
mol	Kir21 block
CCCCN(C(=O)c1cc(CC)c(C)s1)c1c(N)n(CCC)c(=O)[nH]c1=O	0.09
CCc1ccc(OC(C)c2nnc(SCC(=O)Nc3ncccc3C)n2C)cc1 (stereo unspecified)	0.33
Cc1ccc(C(=O)Nc2ccc3nc(C)sc3c2)s1	0.5
Cc1c(-c2ccccc2)n[nH]c1C(=O)NN	0.55
C=C(C)C(=O)N1CC2(CC(c3cccc(NC(=O)/C(C)=C\C)c3)=NO2)C[C@H]1C(N)=O (stereo partly specified)	0.98
